# Source: PubChem
# Rango-impB inh: qHTS Assay for Inhibitors of Rango (Ran-regulated importin-beta cargo) - Importin beta complex formation | AID 540263, 2011 | 340,000 tested, 0.031% active | Potency, µM (highest dose often 92.2 µM), for inactives: at the top dose inhibition of complex formation | Rango CFP/YFP FRET sensor + importin beta, 45 min; active = rising FRET ratio curve, often small or poorly fitted; inconclusive = mostly compound fluorescence or quenching in the first reads; inactive = flat curves in all reads;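 further: potency means the concentration at half of the fitted maximal effect; 0% = DMSO wells and 100% = buffer wells lacking importin beta; nearly all actives have a fitted effect of over 15% in size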
# Target sequence (Q14974 whole entry, looked up): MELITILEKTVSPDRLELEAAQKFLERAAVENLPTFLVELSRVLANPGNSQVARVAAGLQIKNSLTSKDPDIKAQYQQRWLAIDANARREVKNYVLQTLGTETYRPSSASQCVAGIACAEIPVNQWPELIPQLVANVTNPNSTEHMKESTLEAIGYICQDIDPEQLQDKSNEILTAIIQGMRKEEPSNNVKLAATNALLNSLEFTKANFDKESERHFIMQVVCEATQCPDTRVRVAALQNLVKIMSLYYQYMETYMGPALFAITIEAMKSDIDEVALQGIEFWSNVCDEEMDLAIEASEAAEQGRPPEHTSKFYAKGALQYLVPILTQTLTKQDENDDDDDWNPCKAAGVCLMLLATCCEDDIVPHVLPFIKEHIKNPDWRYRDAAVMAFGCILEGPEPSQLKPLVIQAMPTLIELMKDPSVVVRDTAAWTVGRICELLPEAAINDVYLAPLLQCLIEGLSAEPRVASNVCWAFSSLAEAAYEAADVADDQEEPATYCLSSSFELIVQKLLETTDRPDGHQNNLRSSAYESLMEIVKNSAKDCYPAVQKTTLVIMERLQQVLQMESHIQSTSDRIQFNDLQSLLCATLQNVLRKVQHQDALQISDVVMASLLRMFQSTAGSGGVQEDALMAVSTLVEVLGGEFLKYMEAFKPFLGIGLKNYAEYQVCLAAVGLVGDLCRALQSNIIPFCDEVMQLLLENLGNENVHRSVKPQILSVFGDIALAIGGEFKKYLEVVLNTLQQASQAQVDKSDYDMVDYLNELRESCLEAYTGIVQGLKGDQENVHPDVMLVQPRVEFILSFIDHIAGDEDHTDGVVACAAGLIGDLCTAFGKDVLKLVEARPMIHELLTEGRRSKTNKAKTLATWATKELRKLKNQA
#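 FRET biosensor (snurportin 1 IBB flanked by EYFP and cerulean), 50 nM, with compound 5 min, then 0.125 microM importin beta in PBS, 1 mM DTT, 0.02% Tween-20, 0.1% BSA. CFP/YFP ratio read after 45 min at room temperature; pre-read flags interference.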
# Rango dissoc inh: qHTS Assay for Inhibitors of RanGTP induced Rango (Ran-regulated importin-beta cargo) - Importin beta complex dissociation. Snurportin-1 (Homo sapiens) + GTP-binding nuclear protein Ran (Homo sapiens) + Importin …. Biochemical FRET Rango-importin beta, RanGTP-induced dissociation. Potency, µM (doses to about 46.1 µM), for inactives: at the top dose activity change, negative = inhibition. 340,000 tested, 0.071% active. AID 540253, 2011; active means falling FRET ratio curve, often poorly fitted, with flat reads before Ran was added; inconclusive means other falling curves, or compound fluorescence or quenching; inactive means flat or rising ratio curve;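 further: potency means the concentration at half of the fitted maximal effect; % of control where 0% means no effect; nearly all actives have a fitted effect of over 45% in size; -100% = wells without RanGTP and RCC1; the record marks most hits as doubtful in a second field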
#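 Quantitative HTS using a FRET biosensor: 0.1 uM Rango, 0.25 uM importin beta, 0.6 uM Ran, 2 mM GTP, 0.2 uM RCC1 final, PBS with DTT, Tween-20 and BSA. Post-read taken 45 min after Ran addition.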
# GLA inh pH 4.5: qHTS Assay for Inhibitors of Human alpha-Galactosidase at pH 4.5; purified enzyme, 4-MU-alpha-Gal fluorescence, pH 4.5; activity change, negative = inhibition, % at 105 µM; 230,000 tested, under 10 active; AID 1467, 2008; inconclusive = small, poorly fitted or top-dose-only inhibition, or a rising curve; inactive = flat fitted curve, though single readings scatter; no compound was filed as active;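 further: 0% = full activity with enzyme and -100% = basal without enzyme; dose as in the result columns while the protocol names 77 µM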
# miR-21 FLuc: qHTS Assay for Modulators of miRNAs and/orActivators of miR-21; 340,000 tested, under 10 active; HeLa miR-21 FLuc reporter, luciferase, 48 h; Potency, µM (titrated, usually from 38.3 µM), for the others: at the highest dose reporter change, positive = more light; active = well fitted rising curve with a large enough effect; inconclusive = small, poorly fitted or top-dose-only effect; inactive = no such curve, though single readings can be large or run the other way;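 further: % of control where 0% means no effect; miR-21 action dims this reporter so a rising signal means less miR-21 action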
#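 HeLa cells stably expressing CMV-driven firefly luciferase with a downstream miR-21 binding sequence, endogenously expressing miR-21, were treated with titrations (up to about 40uM final) for 48 hours at 37 degree Celsius. Luciferase luminescence was read after lysis.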
# Starred values were filed as active, the others as inactive; ? = inconclusive; / = no result given; & = joins results of further samples. These rows are one share of the data; the hit share may differ from the screen's.
SMILES,Rango-impB inh,Rango dissoc inh,GLA inh pH 4.5,miR-21 FLuc
COc1ccc(OCC(O)CNC(=O)c2ccccc2)cc1 (stereo unspecified),-1.2%,12%,6,1%
COc1ccccc1C(=O)NCCC(=O)NCc1cccnc1,0.1%,31%,/,/
Cc1ccc(C(=O)COC(=O)c2cc(=O)[nH]c3ccccc23)cc1C,-4.2%,5%,13,-3%
CC(=O)Nc1ccc(Nc2ncnc3c2cnn3-c2ccc(C)cc2C)cc1,6.4%,-2%,6,-4%
CN(C(=O)c1ccc(NC(=O)Cc2ccc(NC(=O)C3CCCN(C(=O)CCc4ccccc4)C3)cc2)cc1)C1CCCC1 (stereo unspecified),3.9%,1%,/,/
COc1nc(-c2ccc(C)cc2)ccc1-c1noc(-c2cccnc2)n1,-0.7%,10%,6,-9%
O=C(NC1CCCC1)C(c1ccccc1F)N(C(=O)c1ccco1)C1CCCC1 (stereo unspecified),-5.7%,5%,-2,4%
COC(=O)c1ccc(NC(=O)CSc2nnc(C(C)NC(=O)c3ccccc3Cl)n2C)cc1 (stereo unspecified),0.9%,6%,-4,5%
O=C(Nc1ccccc1[N+](=O)[O-])c1cc(S(=O)(=O)Nc2ccccn2)ccc1Cl,3.4%,3%,/,-7%
C=CCn1c(NC)cc(=O)n(C)c1=O,0.2%,1%,0,0%
Cc1ccc2nc3c(c(N)c2c1)CCN3C,1.0%,-12%,/,-2%
COc1ccc(NC(=O)CSc2nnc(Cc3ccccc3)c(=O)n2N)cc1OC,-0.9%,-8%,/,/
CNC(=O)N(C1=NCCCCC1)c1ccc(Br)cc1,-0.8%,7%,0,-2%
CC1CN(Cc2cc(=O)oc3cc(O)ccc23)CC(C)O1 (stereo unspecified),?,?,/,-2%
COc1ccc(C2c3c(oc4ccccc4c3=O)C(=O)N2Cc2ccncc2)cc1OC (stereo unspecified),4.3%,-6%,/,/
C=CCNC(=S)N1CCC(C(N)=O)CC1,2.8%,1%,6,1%
Cc1ccc(NC(=O)CSc2nc(=O)cc(N)n2-c2ccccc2)cc1,-0.1%,2%,-4,-19%&-13%
O=C(COC(=O)c1ccc(Br)o1)NCC1CCCCC1,-4.4%,-13%,/,/
O=C1c2ccc(-c3ccc4c(c3)C(=O)N(CCO)C4=O)cc2C(=O)N1CCO,-1.7%,-3%,6,-2%
O=C(CCS(=O)(=O)c1ccccc1)Nc1ccc(N2CCOCC2)cc1,0.1%,-6%,-2,-6%
COc1ccc(CC(=O)Nc2ccc(-c3csc(C)n3)cc2)cc1,-1.3%,1%,-1,-15%
Cc1ccc(CN2C(=O)CCC2C(=O)NCc2ccc3c(c2)OCO3)cc1 (stereo unspecified),7.5%,-14%,-1,3%
CCCn1nc(C(=O)NNC(=O)C2CSC3(C)CCC(=O)N23)c2ccccc2c1=O (stereo unspecified),2.8%,17%,/,/
CC(=O)NS(=O)(=O)c1ccc(NC(=O)NC2CCCCC2)cc1,-2.4%,1%,-21,1%
O=C(c1cc(C2CC2)on1)N1CCCC(N2CCN(c3ccc(F)cc3)CC2)C1 (stereo unspecified),4.4%,?,/,6%

# Full records as entered above:
# Results for `CC(=O)Nc1ccc(Nc2ncnc3c2cnn3-c2ccc(C)cc2C)cc1` → Rango-impB inh = 6.4%; Rango dissoc inh = -2%; GLA inh pH 4.5 = 6; miR-21 FLuc = -4%
# Results for `O=C(NC1CCCC1)C(c1ccccc1F)N(C(=O)c1ccco1)C1CCCC1` (stereo unspecified) → Rango-impB inh = -5.7%; Rango dissoc inh = 5%; GLA inh pH 4.5 = -2; miR-21 FLuc = 4%

# (continued)
SMILES,Rango-impB inh,Rango dissoc inh,GLA inh pH 4.5,miR-21 FLuc
Cc1ccc(C(=O)NC(=S)Nc2cccc(NC(=O)c3ccccc3)c2)cc1[N+](=O)[O-],2.0%,-1%,-2,-17%
COc1ccc(NC(=O)CN(C)C(=O)c2ccc(S(=O)(=O)Nc3ccccc3F)cc2)cc1,-2.7%,16%,/,/
CCOC(=O)C1=C(CC)Nc2ccccc2N=C1NC(=O)CCNC(C)=O,1.7%,-2%,0,2%
COc1cccc2c(=O)n(CC(=O)N3CCN(c4ccccc4)CC3)ccc12,-1.6%,-7%,-4,-5%
COCc1ccc(CN2CCC(n3nccc3NC(=O)C(OC)c3ccccc3)CC2)o1 (stereo unspecified),4.7%,0%,/,0%
COc1ccc(-n2nc(C(=O)NCC(=O)NCCCN3CCCCCC3)c3ccccc3c2=O)cc1Cl,-0.6%,-9%,-22,-3%
O=C(CN1CCCCCC1)N/N=C/c1cccs1,0.7%,-5%,4,-1%
O=C(Nc1sc2c(c1C(=O)O)CCC2)c1ccccc1Cl,-2.8%,13%,/,1%
CCNc1nc(Oc2ccccc2)nc(OC(C)C(=O)OCC)n1 (stereo unspecified),0.3%,-4%,3,-1%
CC(C)NC(=O)Nc1ccc(Br)cc1Cl,2.2%,15%,7,-2%
C=CCN1C(=O)C(CC(=O)NCC)SC1=Nc1ccc(S(N)(=O)=O)cc1 (stereo unspecified),0.4%,13%,5,3%
CC(C)(C)c1ccc(Oc2ccc(NC(=O)c3ccccc3C(=O)O)cn2)cc1,?,?,-17,?
Cn1cnc(S(=O)(=O)Nc2ccc(C(F)(F)F)cc2)c1,13%,-15%,0,-6%
COc1ccc(-c2c(C#Cc3ccsc3)c3cc(Br)ccc3n2C)cc1,-4.5%,-8%,/,/
O=C(COC(=O)c1ccc(Br)o1)Nc1ccc(S(=O)(=O)N2CCCC2)cc1,1.7%,1%,4,0%
O=C(Cc1cccc(NC(=O)C2CCN(C(=O)C3CCC3)CC2)c1)Nc1cccc(C(=O)N2CCCCC2)c1,0.7%,14%,/,/
CCN(CC)C(=O)C(=O)c1c(-c2ccccc2)[nH]c2ccccc12,-1.3%,11%,-17,-6%
O=c1nccc(Nc2ccccc2)[nH]1,-2.8%,5%,-1,2%
CC(C)c1ccc(NC(=O)CC2Oc3ccccc3NC2=O)cc1 (stereo unspecified),-5.6%,0%,/,-33%&-6%
O=C(CCS(=O)(=O)c1ccc(F)cc1)N1CCN(c2ccccc2)CC1,0.8%,-12%,/,/
Cc1ccc(Nc2c(-c3ccco3)nc3nc(C)cc(C)n23)cc1,-0.7%,-1%,-4,0%
O=C(Nc1cccc([N+](=O)[O-])c1)c1ccc(N2CCCC2=O)cc1,1.4%,-3%,5,-23%
CNc1nc(-c2ccccc2)cc(-c2ccccc2)n1,-0.1%,-7%,/,2%
CCN1CCc2c(sc(NC(=O)c3ccc(S(=O)(=O)N4CCOCC4)cc3)c2C(N)=O)C1,?,?,-10,1%
Cc1nn(Cc2cccc(C(=O)NC(C)c3ccc(C(C)(C)C)cc3)c2)c(C)c1[N+](=O)[O-] (stereo unspecified),1.9%,0%,5,16%
# The listing continues.
SMILES,Rango-impB inh,Rango dissoc inh,GLA inh pH 4.5,miR-21 FLuc
CC1CCC(NC(=O)CCC(=O)N2CC(C)Oc3ccccc32)CC1 (stereo unspecified),-0.1%,-5%,/,-25%
O=C1CC(c2ccccc2)CC(O)=C1C=NCc1ccccc1 (stereo unspecified),0.2%,-8%,1,-7%
CN(Cc1ccon1)C(=O)CC1C(=O)NCCN1CC(C)(C)C (stereo unspecified),-1.1%,8%,6,0%
CCOc1ccccc1NS(=O)(=O)c1ccc2[nH]c(=O)[nH]c2c1,3.4%,-8%,/,-5%
Cc1ccc(S(=O)(=O)N2CCCCC2)cc1NC(=O)c1cc(=O)[nH]c2ccccc12,-2.8%,24%,/,/
On1c(-c2ccccc2Cl)nc2ccccc21,4.5%,-13%,-16,-9%
Cc1ccc2nc(NC(=O)CSc3nncc(=O)n3N)sc2c1,2.9%,7%,4,-21%
COc1ccc(OC)c(NC(=O)c2cccc(S(=O)(=O)N3CCN(C(C)=O)CC3)c2)c1,-1.5%,0%,/,-7%
COC(=O)Nc1cc(C(F)(F)F)ccc1N1CCN(c2ccccc2)CC1,1.5%,9%,-5,0%
C/C(=N/OC(=O)c1cccc(Cl)c1)c1nccs1,1.6%,-11%,-19,-3%
OCc1ncc(-c2ccccc2)s1,-1.2%,11%,7,-27%
O=C(O)CCC(=O)Nc1ccccc1N1CCOCC1,0.1%,-17%,2,0%
O=C(Nc1ccc(Cl)cc1)c1sccc1-n1cccc1,-2.0%,-15%,6,-6%
CCN(CC)S(=O)(=O)c1cccc(-c2nnc(SCCOc3ccc(Cl)cc3)o2)c1,-2.2%,-23%,-1,0%
CCCS(=O)(=O)c1c(S(=O)(=O)CCC)c2cnccn2c1C(=O)c1ccc(OC)cc1,-0.5%,0%,-3,-14%
Cc1[nH]c2ccccc2c1-c1nc2ccccc2[nH]c1=O,?,?,/,-31%
Cc1ccccc1NC(=O)CSc1nnc(C2CC2)n1CC1CCCO1 (stereo unspecified),?,-14%,/,1%
COc1ccc(/C=C/C(=O)Nn2cnnc2)cc1,0.5%,-8%,5,2%
C=CCOc1ccc(/C=C(\C#N)C(=O)Nc2ccccn2)cc1OC,?,?,/,0%
CN1CCN(S(=O)(=O)c2ccc(NC(=O)c3ccc(Br)s3)cc2)CC1,1.9%,1%,-5,-15%
COC(=O)C1=C(C)NC(=O)NC1c1cn(-c2ccccc2)nc1-c1cccs1 (stereo unspecified),-2.6%,-15%,-2,-8%
Cc1ccc2c(c1)NCC(C(=O)NC1CCC(C)CC1)O2 (stereo unspecified),0.1%,0%,1,-51%
Cc1ccc(Nc2nc(C(=O)N3CCC(C(=O)N4CCN(C)CC4)CC3)cs2)cc1,0.5%,-7%,2,-28%
C=Cc1ccc2c(c1)N(C)C(=C)S2,-0.5%,1%,-4,-1%
CCC(C)(C)C1CCC2(CC1)NC(CO)(CO)CO2 (stereo unspecified),4.1%,16%,5,-4%
# More structures.
SMILES,Rango-impB inh,Rango dissoc inh,GLA inh pH 4.5,miR-21 FLuc
COc1ccc(C)cc1NC(=O)C(c1ccccc1)N1CCNC(=O)C1 (stereo unspecified),/,/,5,-2%
CCc1ccc(C(=O)NNC(=O)c2n[nH]c(=O)c3ccccc23)cc1,7.0%,16%,/,/
Cc1ccc2c(=O)cc(C(=O)NCCc3ccc(S(N)(=O)=O)cc3)oc2c1,-2.1%,-5%,/,10%
CC(C)OCCCNc1ncnc2c1cnn2-c1ccccc1,-0.7%,15%,/,-17%
Cc1cccn2c(=O)c(/C=C(\C#N)S(=O)(=O)c3ccccc3)c(Oc3ccc(Cl)cc3)nc12,-0.2%,2%,-5,-2%
O=C(Nc1ccc(N2CCOCC2)nc1)c1ccccc1Cl,3.2%,-1%,-3,-39%
O=C1c2oc3ccc(Cl)cc3c(=O)c2C(c2cccnc2)N1Cc1ccco1 (stereo unspecified),/,/,-3,-9%
COc1ccccc1/C=N/N1CCN(Cc2ccccc2Cl)CC1,3.9%,18%,/,-6%
CCOC(=O)CN(C(=O)CSc1nnc(C)n1-c1ccccc1)c1cccc([N+](=O)[O-])c1,-0.4%,-12%,-3,-8%
O=C(CNS(=O)(=O)c1cccc(Cl)c1)OCc1csc(-c2ccccc2)n1,-2.0%,7%,-2,-36%
O=C(NCc1cccnc1)NC1CCCN1S(=O)(=O)c1ccc(Cl)cc1 (stereo unspecified),-2.7%,-10%,-20,-1%
Fc1ccccc1N1CCN(C2CCCN(Cc3cccc(C(F)(F)F)c3)C2)CC1 (stereo unspecified),0.9%,?,/,7%
CC(=O)OCC(=O)[C@@]1(O)CC[C@H]2[C@@H]3CCC4=CC(=O)CC[C@]4(C)[C@H]3C(=O)C[C@@]21C,-3.4%,-3%,3&-9,-1%
COCCSc1ccccc1C(=O)NCCCn1ccnc1,-4.1%,-9%,0,2%
COc1ccc(S(=O)(=O)NCCCN2CCCC2=O)c(OC)c1,-3.7%,-9%,/,-2%

# Just miR-21 FLuc, for some of the entries so far:
mol	miR-21 FLuc
O=C(NCc1cccnc1)NC1CCCN1S(=O)(=O)c1ccc(Cl)cc1 (stereo unspecified)	-1%
Fc1ccccc1N1CCN(C2CCCN(Cc3cccc(C(F)(F)F)c3)C2)CC1 (stereo unspecified)	7%
CC(=O)OCC(=O)[C@@]1(O)CC[C@H]2[C@@H]3CCC4=CC(=O)CC[C@]4(C)[C@H]3C(=O)C[C@@]21C	-1%
